gsp ag = qHTS for Agonist of gsp, the Etiologic Mutation Responsible for Fibrous Dysplasia/McCune-Albright Syndrome: qHTS. gsp mutant cells, cAMP HTRF, 30 min; control for the full effect not named in the record. Potency, µM (series often up to 76.9 µM), without a hit: at the highest dose activation (cAMP increase), most hits filed as activators. 0.13% of 340,000 active; active = well fitted activation curve with a large enough effect; inconclusive = small, poorly fitted or top-dose-only effect, or another doubt; inactive = no such curve, though single readings can be large or run the other way; cell line not stated here;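 also: phosphodiesterase inhibitor Ro 20-1724 added with compounds to block cAMP breakdown; potency is read from the fitted curve at half-maximal effect; nearly all actives have a fitted effect of over 60% in size; about a fifth of the inactives were tested at one dose only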
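Cells stably selected in G418 were plated at 2000/well, grown 16-24 hr, then given compounds in DMSO with the PDE inhibitor […] (300 uM solution added) for 30 min at 37C; cAMP was read by HTRF.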
ClpP mod = qHTS Assay for Activators of ClpP | ATP-dependent Clp protease proteolytic subunit (Bacillus subtilis (strain 168)), P80244 | purified B. subtilis ClpP, FRET peptide cleavage, 20 min | Potency, µM (series often up to 57.5 µM), for the others: top-dose activity change, negative = active | 1.9% of 340,000 active; active = well fitted falling curve with a large enough effect; inconclusive = small, poorly fitted or top-dose-only effect; inactive = no such curve, though single readings can be large or run the other way; also: potency is read from the fitted curve at half-maximal effect; the source files actives as falling curves though it sought activators and does not explain the sign; nearly all actives have a fitted effect of over 65% in size; many hits overshoot -100%
Target sequence (P80244 whole entry, looked up): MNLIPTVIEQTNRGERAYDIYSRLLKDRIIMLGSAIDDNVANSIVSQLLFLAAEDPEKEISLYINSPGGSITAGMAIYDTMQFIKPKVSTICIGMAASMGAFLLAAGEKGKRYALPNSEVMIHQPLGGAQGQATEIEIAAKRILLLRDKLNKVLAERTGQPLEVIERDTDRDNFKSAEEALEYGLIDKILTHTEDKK
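FRET quenching reversal measured ClpP activation: 10 microg/mL B. subtilis ClpP at pH 8 with the FRET-FV decapeptide, read at 430 nm after 320 nm excitation. The 20-min minus 0-min signal was scaled between DMSO/no-enzyme wells and ADEP (5.8 microM final).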
gsp antagonist = qHTS for Antagonists of gsp, the Etiologic Mutation Responsible for Fibrous Dysplasia/McCune-Albright Syndrome: qHTS. gsp-mutant cells, cAMP HTRF, 30 min; control for the full effect not named in the record. Potency, µM (titrated, usually from 76.9 µM), without a hit: top-dose activity change, negative = inhibition, hits mostly inhibitors. 0.4% of 340,000 active. AID 624288, 2012; active = falling curve of any shape with a large fitted effect; inconclusive = falling curve, mostly with a smaller effect; inactive = flat or rising curve; cell line not stated here;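 also: intracellular cAMP measured with PDE inhibitor Ro 20-1724 present during compound exposure; potency is read from the fitted curve at half-maximal effect; % is scaled to controls: 0 for no effect and ±100 for the full control effect; nearly all actives have a fitted effect of over 65% in size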
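G418-selected cells were plated in DMEM/10% FBS for 16-24 h at 37C, then treated with compounds plus the PDE inhibitor […] (300 uM solution added) for 30 min at 37C. Intracellular cAMP was measured by HTRF after 30 min lysis at room temperature.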
Menin-MLL FL inh = qHTS Assay for Inhibitors Targeting the Menin-MLL Interaction in MLL Related Leukemias: Competition With Fluorescein Labeled MLL-derived Peptide | FP activity change, % at 61.4 µM | Fluorescence polarization, fluorescein-MLL peptide displacement from menin | 290,000 tested, under 10 active; inconclusive = falling polarisation curve, or a change in total fluorescence; inactive = total fluorescence flat and polarisation flat or rising; no compound was filed as active; the % refers to the polarisation; negative = inhibition;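 also: % of control where 0% means no effect; inhibitors lower the polarisation; unlabelled MLL peptide was the positive control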
Sfp PPTase inh = qHTS Assay for Inhibitors of Bacillus subtilis Sfp phosphopantetheinyl transferase (PPTase); 4'-phosphopantetheinyl transferase ffp (Bacillus subtilis), Q9F4F7; Biochemical Sfp PPTase activity, qHTS; Potency, µM, inactives show max response, negative = inhibition, usual class: inhibitors; 3.5% of 310,000 active; AID 1490, 2009; active = well fitted inhibition curve with a large enough effect; inconclusive = small, poorly fitted or top-dose-only effect, or another doubt; inactive = no such curve, though single readings can be large or run the other way;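 also: the enzyme is Sfp with the accession as filed and its product quenches rhodamine fluorescence; potency is read from the fitted curve at half-maximal effect; 0% = enzyme reaction without inhibitor and -100% = no enzyme wells; top concentration of the series not given in the record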
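Reaction rates are the 30-min fluorescence difference (ex 525, em 598 nm) in wells containing 15 nM Sfp, 5 uM rhodamine-CoA and 12.5 uM BHQ-2-YbbR at pH 7.6 with 10 mM MgCl2.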
CtBP-E1A inh = qHTS Assay for Inhibitors of the CtBP/E1A Interaction | activity change, % (concentration not given with the values) | AlphaScreen GST-E1A/His-CtBP binding, 1536-well; hits give low values; control for the full effect not named in the record | CtBP / adenovirus E1A interaction (AlphaScreen) | 0.49% of 340,000 active; in the data active means activity change below about -65%; inconclusive means about -30% to -65%; inactive means above about -30%; also: % is scaled to controls: 0 for no effect and ±100 for the full control effect
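In 5 uL wells, 23 nL compound meets equimolar GST-E1A and His-CtBP (5X stock 125 nM each) for 2 h, 37 °C. Beads (5X, 50 ug/mL) then 1 h, 37 °C, dark.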
TRPV1 PAM = HTS Assay for Compounds that Act as Potentiators of the Vanilloid Receptor 1; Transient receptor potential cation channel subfamily V member 1 (Homo sapiens), Q8NER1; TRPV1-expressing cells, Fluo-8 calcium influx, capsaicin EC20 potentiation; host cell line not named in the record; control for the full effect not named in the record; potentiation, % at 8.33 µM; 0.02% of 320,000 active; AID 540277, 2011; active means potentiation above 80%; inconclusive means 30% to 80%; inactive means below 30%; also: 0% is about no effect
Target sequence (Q8NER1 whole entry, looked up): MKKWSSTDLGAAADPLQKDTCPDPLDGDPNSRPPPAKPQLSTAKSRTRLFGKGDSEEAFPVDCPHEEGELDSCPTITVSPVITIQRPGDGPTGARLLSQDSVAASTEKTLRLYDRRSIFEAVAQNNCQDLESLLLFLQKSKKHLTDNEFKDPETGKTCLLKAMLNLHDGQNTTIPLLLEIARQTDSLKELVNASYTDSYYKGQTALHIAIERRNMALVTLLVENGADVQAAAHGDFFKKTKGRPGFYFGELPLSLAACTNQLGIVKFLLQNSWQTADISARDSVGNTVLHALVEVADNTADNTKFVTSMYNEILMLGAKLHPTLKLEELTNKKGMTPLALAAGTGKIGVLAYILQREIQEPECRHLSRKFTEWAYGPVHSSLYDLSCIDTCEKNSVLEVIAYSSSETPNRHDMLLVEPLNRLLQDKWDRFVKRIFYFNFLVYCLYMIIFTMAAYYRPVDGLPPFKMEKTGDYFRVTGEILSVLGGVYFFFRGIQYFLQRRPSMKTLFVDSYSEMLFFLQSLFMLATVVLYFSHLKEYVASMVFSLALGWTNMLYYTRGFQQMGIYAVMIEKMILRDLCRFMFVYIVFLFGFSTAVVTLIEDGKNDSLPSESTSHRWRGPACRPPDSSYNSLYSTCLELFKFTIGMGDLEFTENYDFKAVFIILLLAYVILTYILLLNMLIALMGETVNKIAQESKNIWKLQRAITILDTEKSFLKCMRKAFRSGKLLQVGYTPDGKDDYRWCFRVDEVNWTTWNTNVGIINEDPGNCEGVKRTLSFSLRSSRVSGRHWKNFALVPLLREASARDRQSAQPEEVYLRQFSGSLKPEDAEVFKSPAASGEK
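TRPV1-expressing cells were cultured overnight at 35.5C and loaded with Fluo-8 calcium dye for 40 to 90 min at room temperature. After a 10 s baseline, compound was added and calcium influx was read kinetically for 3 min (ex 480/em 520 nm).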
An asterisk follows results filed as active; ? = inconclusive; / = not tested or not shown; & = joins results of further samples; [ ] = another dose, or the depositor's remark.

1) Cc1csc(C(C)N(C)C(=O)CCc2nnc(CCc3ccccc3)o2)n1 (stereo not given)
2) O=C1CN(C(=O)CN2CCCC2)C(c2ccccc2)c2cc(Br)ccc2N1 (stereo not given)
3) COc1cccc(OC)c1C(=O)Nc1ccc(C(=O)c2ccncc2)cc1
4) Cc1ccccc1C(=O)NCC(=O)NC1CC1
5) OC(CNCc1ccc(-c2ccccc2)cc1)c1ccccc1 (stereo not given)

Compound	1	2	3	4	5
gsp ag	6%	22%	7%[15.4 µM]	3%	3%[15.4 µM]
ClpP mod	-0.6%	0.0%	/	0.2%	/
gsp antagonist	-1%	8%	-13%	12%	14%
Menin-MLL FL inh	5.5	3.9	/	/	-0.6
Sfp PPTase inh	0%	9%	/	/	5%
CtBP-E1A inh	/	0	4	23	4
TRPV1 PAM	-4	-38	19	/	14

6) COc1ccc(C(=O)c2c(C)c3cc(C)ccc3n2CC(O)CN2CCOCC2)cc1 (stereo not given)
7) C[n+]1cnn2c1SCC1(COC1)C2
8) CC(C)(C)c1ccc(-n2nc(C(N)=O)c(O)cc2=O)cc1
9) C[C@@H]1CN([C@H](C)CO)C(=O)c2cc(C#C[C@@H](C)O)cnc2O[C@H]1CN(C)C(=O)c1ccc(F)cc1
10) COc1ccc(Nc2nc(C)cc(C)c2C#N)c(OC)c1

Compound	6	7	8	9	10
gsp ag	-1%	-7%	-22%[15.4 µM]	-20%	-52%[inhibitor]
ClpP mod	-3.3%	-3.3%	/	-1.7%	/
gsp antagonist	-1%	7%	-3%	/	4%
Menin-MLL FL inh	0.4	6.2	0.5	/	-5.1
Sfp PPTase inh	-21%	3%	14%	/	16%
CtBP-E1A inh	-5	8	/	6	10
TRPV1 PAM	0	2	24	/	-12

11) O=C(CN(Cc1ccccc1)C(=O)CCC(=O)Nc1nccs1)NCc1ccccc1
12) CCN(Cc1nc2ccccc2c(=O)[nH]1)C(=O)COc1ccccc1-c1ccccc1
13) Cc1cccc(NC(=O)[C@H](C)NC(=O)[C@@H]2Cc3ccccc3CN2C(=O)OC(C)(C)C)c1
14) O=C(NCC(=O)N1CC=C(c2ccccc2)CC1)c1ccco1
15) CC(C)NC(=O)CSc1nc2ccccc2n1CC(=O)N(C(C)C)C(C)C

Compound	11	12	13	14	15
gsp ag	10%[15.4 µM]	-29%	6%	-3%	0%
ClpP mod	/	-2.5%	-1.2%	3.3%	1.5%
gsp antagonist	-32%	-24%	-4%	-3%	-9%
Menin-MLL FL inh	0.6	/	/	/	-0.4
Sfp PPTase inh	22%	/	17%	/	25%
CtBP-E1A inh	-3	17	/	6	15
TRPV1 PAM	10	10	-5	9	1

16) Cn1cccc1CNC(=S)Nc1ccccc1F
17) COc1cc(/C=N/n2cnnc2)ccc1OC(=O)c1cccnc1
18) O=c1[nH]c2ccccc2c2nc3ccccn3c12
19) CCOC(=O)CNC(=O)CSc1nc2nc(C)c(Br)cc2[nH]1
20) c1cc2c(cc1-c1[nH]ncc1CN1C[C@H]3CC[C@H]1C3)OCO2

Compound	16	17	18	19	20
gsp ag	-19%[15.4 µM]	-27%	9%	12%	-9%[15.4 µM]
ClpP mod	/	-0.2%	?	-0.9%	/
gsp antagonist	4%	6%	17%	3%	7%
Menin-MLL FL inh	-1.8	0.8	-2.8	-3.5	0.8
Sfp PPTase inh	7%	3%	22%	9%	22%
CtBP-E1A inh	-17	-3	?	25	1
TRPV1 PAM	-6	-12	0	3	11

21) O=C(c1cccs1)N1CCCC(c2nc3c(nnn3Cc3ccccc3)c(=O)[nH]2)C1 (stereo not given)
22) CCC(=O)NC(=S)Nc1ccc(NC(=S)NC(=O)c2ccc(C)cc2)cc1
23) COc1ccc(CN2C(=O)c3ccccc3C(/C=N\OCc3ccc(C)cc3)C2=O)cc1 (stereo not given)
24) Cc1ccc(N(Cc2cc3ccc(C)cc3[nH]c2=O)C(=O)c2ccco2)cc1
25) COc1ccc(N2CCN(S(=O)(=O)c3ccc4c(c3)CC(C)N4C(=O)C3CC3)CC2)cc1 (stereo not given)

Compound	21	22	23	24	25
gsp ag	3%	?	-21%	6%	-49%[inhibitor]
ClpP mod	-0.5%	1.5%	-17%	-20%	0.8%
gsp antagonist	-15%	16%	-4%	-8%	-4%
Menin-MLL FL inh	0.9	/	3.2	4.3	-6.6
Sfp PPTase inh	18%	-4%	18%	22µM*	1%
CtBP-E1A inh	5	9	9	-6	-1
TRPV1 PAM	-1	8	-10	22	-4

26) N#Cc1c(N)nc2c(c1-c1ccncc1)CCCC2
27) COc1ccccc1-c1cc(-c2ccccc2)nc(SCC(=O)O)c1C#N
28) CCOc1ccc(NC(=O)CSc2ncn[nH]2)cc1
29) CC1(C)C(O)=C(c2nc3ccccc3[nH]2)C(=N)N1c1ccccc1
30) COc1ccc(N2C(=O)CC(c3ccccc3)CC2=O)cc1

Compound	26	27	28	29	30
gsp ag	12%	4%	0%	?	0%
ClpP mod	?	-21%	1.1%&-1.9%	-15%	-0.4%
gsp antagonist	-3%	?	-6%	-12%	2%
Menin-MLL FL inh	4.4	-1.7	/	13	/
Sfp PPTase inh	15%	-1%	12%	22%	/
CtBP-E1A inh	4	11	9	-2	6
TRPV1 PAM	0	-3	-14	-21	-8

Laid out differently: four of the compounds above
Below each SMILES: gsp ag	ClpP mod	gsp antagonist	Menin-MLL FL inh	Sfp PPTase inh	CtBP-E1A inh	TRPV1 PAM
27. COc1ccccc1-c1cc(-c2ccccc2)nc(SCC(=O)O)c1C#N
 : 4%	-21%	?	-1.7	-1%	11	-3
28. CCOc1ccc(NC(=O)CSc2ncn[nH]2)cc1
 : 0%	1.1%&-1.9%	-6%	/	12%	9	-14
29. CC1(C)C(O)=C(c2nc3ccccc3[nH]2)C(=N)N1c1ccccc1
 : ?	-15%	-12%	13	22%	-2	-21
30. COc1ccc(N2C(=O)CC(c3ccccc3)CC2=O)cc1
 : 0%	-0.4%	2%	/	/	6	-8

Additional results.
31) COCCn1c(-c2ccc(OC)cc2)cnc1N
32) Nc1nnc(SCC(=O)Nc2nnc(-c3ccccc3)o2)s1
33) CCOC(=O)c1[nH]c(C)c(C(=O)OCc2ccc(C)cc2)c1C
34) N#C/C(=C\c1ccc(-c2cccc([N+](=O)[O-])c2)o1)C(=O)N1CCOCC1
35) CCOc1ccccc1NC(=S)Nc1ccc(S(N)(=O)=O)cc1

Compound	31	32	33	34	35
gsp ag	-6%	1%	-3%[15.4 µM]	7%[15.4 µM]	12%
ClpP mod	-6.1%	-0.5%	/	/	/
gsp antagonist	0%	4%	6%	1%	-2%
Menin-MLL FL inh	0.6	/	-0.8	-1.5	1.2
Sfp PPTase inh	4%	/	15%	3%	9%
CtBP-E1A inh	?	-20	-14	2	-2
TRPV1 PAM	-8	1	4	-20	4

36) O=C(CN(C(=O)c1csnn1)c1cccc(C(F)(F)F)c1)NC1CCCC1
37) CCc1ccccc1NC(=O)NC1CC2CCC(C1)N2Cc1cccs1 (stereo not given)
38) C[C@H]1CN([C@@H](C)CO)C(=O)CCCn2nncc2CO[C@H]1CN(C)S(=O)(=O)c1ccc(Cl)cc1
39) Cc1ccc(-c2ccc(CN3C(C)C(=O)N(Cc4cn(CCC5OCCO5)nn4)CCS3(=O)=O)cc2)cc1 (stereo not given)
40) Oc1c(Br)cc(C=Nc2ccc3nc(-c4ccccc4)[nH]c3c2)c(O)c1Br

Compound	36	37	38	39	40
gsp ag	-1%[15.4 µM]	-54%[inhibitor]	-31%[inhibitor]	-5%	?
ClpP mod	-1.9%	0.2%	-1.2%	-2.9%	/
gsp antagonist	-10%	7%	/	/	-13%
Menin-MLL FL inh	/	2.0	/	/	31[activator]
Sfp PPTase inh	4%	14%	/	/	56µM*
CtBP-E1A inh	-4	7	6	-17	?
TRPV1 PAM	16	1	/	/	-2

41) O=C(CCCOc1ccc(Cl)cc1Cl)Nc1cc(S(=O)(=O)N2CCOCC2)ccc1N1CCOCC1
42) CON(C)c1nc(C2CCCCC2)c2cc(C)ccc2n1
43) COc1ccc(CN2CCN(C(C)C)C(CCO)C2)cc1Cn1cncn1 (stereo not given)
44) O=C1CCC2=C(CCCC2=O)N1
45) CCCCNC(=S)NCCN1CCCCC1

Compound	41	42	43	44	45
gsp ag	3%	-14%	3%[15.4 µM]	4%[15.4 µM]	-10%
ClpP mod	-5.7%	-7.8%	/	-0.3%	1.0%
gsp antagonist	-6%	2%	-2%	-5%	1%
Menin-MLL FL inh	/	/	-0.8	-3.1	2.3
Sfp PPTase inh	/	/	0%	6%	56µM*
CtBP-E1A inh	-5	52	7	5	0
TRPV1 PAM	/	/	6	-6	29

46) CC1Sc2ccc(S(=O)(=O)N3CCC(C(=O)NCC(C)c4ccccc4)CC3)cc2NC1=O (stereo not given)
47) COc1ccc(N(CC(=O)Nc2cccc(N(C)S(C)(=O)=O)c2)S(=O)(=O)c2ccc(C)cc2)cc1
48) COc1c(Cl)cc(-c2noc(C)c2C(=O)NC(C)C)cc1Cl
49) CC(=O)c1cccc(OCC(=O)N(C)CC(=O)NCc2ccco2)c1
50) CN(C)S(=O)(=O)c1ccc(NC(=O)c2cc3ccccc3o2)cc1

Compound	46	47	48	49	50
gsp ag	?	?	?	-28%	-37%[inhibitor]
ClpP mod	1.9%	-3.1%	1.6%	-1.0%	-5.1%
gsp antagonist	28µM*	-12%	-2%	9%	-18%
Menin-MLL FL inh	/	-0.7	0.4	/	3.4
Sfp PPTase inh	4%	15%	8%	/	-8%
CtBP-E1A inh	-5	/	8	-2	-9
TRPV1 PAM	-6	2	0	/	-8
